A1 inh: inducers of caspase activity in MEF A1-2A-BIM cells, primary screen, A1 inhibitor project, cell-based, CaspaseGlo luminescence. caspase-Glo luminescence, 3 h; percent of clofoctol signal, DMSO as zero. caspase activation, % (concentration not given with the values). 21,000 compounds, 0.51% hits. AID 2241, 2010;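 active = most replicate scores above 10, or exactly half above 10 with mean activity above 10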;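 note: effector caspase 3 and 7 activity cleaving a DEVD luciferin substrate; 50 nL library stock added to about 30 µL; numbers are from one replicate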
BJeLR viab HTS: BJeLR cell viability loss, primary screen, luminescence, CellTiterGlo ATP. 30,000 compounds, 0.64% hits. viability loss activity score, % (no concentration beside the values). BJeLR fibroblasts viability, 48 h; HRASV12, hTERT and SV40 LT/ST transformed; in the data active = viability loss activity score above about 50%; about a fifth of its hits are not listed in these tables;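 note: higher score means fewer live cells and less ATP luminescence; stock transfer was 50 or 100 nL into about 30 µL; 0% = vehicle wells and 100% = a reference killing control; one replicate is shown; the record names a cut of 85%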
* = called active by the depositor; / = not tested or not shown. Not all compounds are listed; rates above refer to the full screens.

SMILES | A1 inh | BJeLR viab HTS
C[C@@H]1CN([C@@H](C)CO)C(=O)c2cc(NC(=O)c3ccncc3)ccc2O[C@H]1CN(C)Cc1ccccc1 | -0.3 | 2.1
CCc1ccc(NC(=O)CSc2ccc3nnc(-c4ccccn4)n3n2)cc1 | -0.4 | 0.4
COc1ccc(OCC(=O)N2CCN(S(=O)(=O)c3ccc(OC)cc3)CC2)cc1 | -0.1 | -0.6
CNC[C@@H]1Oc2ccc(NC(=O)C3CC3)cc2C(=O)N([C@@H](C)CO)C[C@H]1C | 0.9 | 0.9
S=c1nc(-c2ccccc2)n(-c2ccc(Br)cc2)c2c1CCCC2 | -0.5 | 4.5
Cc1cc(NC(=O)c2ccc(N)cc2)c(N)cc1N | 0.7 | -1.6
CSc1ccc(S(=O)(=O)Nc2c(C)cc(OCC(=O)N3CCOCC3)cc2C)cc1 | 0.0 | -1.1
COc1ccc(CN(C)C[C@H]2Oc3c(NC(=O)NC4CCCCC4)cccc3C(=O)N([C@@H](C)CO)C[C@H]2C)cc1 | / | 4.5
Cc1ccc(C)c(N2CCN(C(=O)C3CCCN3S(=O)(=O)c3cccc4nsnc34)CC2)c1 (stereo not drawn) | / | -1.2
CCOC(=O)c1sc2ncn3c(-c4ccc(C)cc4)nnc3c2c1C | 1.1 | -0.2
CC(C)N(C(=O)Cn1c2ccccc2c2nc3ccccc3nc21)c1ccccc1 | 0.7 | -2.2
O=c1n(-c2ccc(F)cc2)nc2n1CCCN2 | -3.1 | 2.8
C[C@H]1CN([C@@H](C)CO)C(=O)c2cccc(NC(=O)c3ccc(-c4nccs4)cc3)c2O[C@H]1CN(C)C(=O)Nc1ccc(F)cc1 | / | -4.2
CC(C)CSc1nnc(CSCc2nc(-c3ccc(Cl)cc3)cs2)n1C | -1.6 | 5.6
CC(C)C(C(=O)Nc1ccc(S(=O)(=O)Nc2ncccn2)cc1)N1C(=O)c2ccccc2C1=O (stereo not drawn) | 0.5 | 0.9
COc1cc([C@H]2OC[C@](O)(Cc3ccc(O[C@@H]4O[C@H](CO)[C@@H](O)[C@H](O)[C@H]4O)c(OC)c3)[C@@H]2CO)ccc1O | -0.3 | -10.7
N/C(=N/c1nc2ccccc2o1)NC(=O)/C=C/c1ccccc1 | -0.3 | -6.6
CNC[C@H]1Oc2ccc(NC(=O)CCC(F)(F)F)cc2C(=O)N([C@H](C)CO)C[C@@H]1C | 0.7 | -3.4
C[C@@H]1CN([C@H](C)CO)C(=O)c2cccc(NC(=O)c3nc4ccccc4s3)c2O[C@@H]1CN(C)C(=O)NC1CCCCC1 | / | -4.6
C[C@H](CO)N1C[C@H](C)[C@H](CN(C)C(=O)Nc2ccc(F)cc2)Oc2c(NS(=O)(=O)c3ccc(Cl)cc3)cccc2C1=O | / | -0.6
O=C(C1CC1)N1CCc2cc(S(=O)(=O)NCCCN3CCCCC3)ccc21 | / | 1.3
O=C(O)c1c(Br)c(Br)c(Br)c(Br)c1-c1c2ccc(=O)cc-2oc2cc(O)ccc12 | 0.0 | 0.0
Cc1cc(C)n2c(SC(CNS(=O)(=O)c3ccccc3)c3ccccc3)nnc2n1 (stereo not drawn) | / | -1.1
CC(C)OC(=O)COc1cc2oc(=O)c3c(c2cc1Cl)CCC3 | -0.6 | -0.8
CC(SC1=NN2CCCC(=O)N=C2S1)c1ccccc1 (stereo not drawn) | 0.8 | 3.7

New compounds follow:
SMILES | A1 inh | BJeLR viab HTS
C[n+]1c(-c2ccccc2)csc1NC1CCCCC1 | 0.9 | 0.8
COc1ccc2cc(C(C)C(=O)OCC(=O)N3CCCc4ccccc43)ccc2c1 (stereo not drawn) | -0.9 | -8.4
COc1ccc(NC(=O)N(C)C[C@H]2Oc3c(NS(C)(=O)=O)cccc3C(=O)N([C@H](C)CO)C[C@H]2C)cc1 | / | 2.8
C[C@@H]1CN([C@H](C)CO)C(=O)c2cccc(NC(=O)NC3CCCCC3)c2O[C@H]1CN(C)C(=O)NC1CCCCC1 | / | -0.8
CCCc1c(C(=O)NC2Cc3ccccc3C2)cnn1-c1ccccc1 | -0.8 | 0.0
CCc1cc2c(=O)n(-c3ccccc3)c(SCC(=O)c3ccccc3)nc2s1 | 0.5 | 1.4
CCOc1ccc(Nc2nc(N3CCCCC3)nc(N3CCCCC3)n2)cc1 | -0.1 | 3.3
Cc1cc(I)ccc1NC(=O)c1ccc(C(C)(C)C)cc1 | 0.4 | 4.9
NC(=O)c1ccc(NC(=O)c2cccc3c2OCCCO3)cc1 | 0.4 | 0.7
O=C(NCc1cccnc1)c1ccc(COc2cccc3ccccc23)o1 | / | -3.1
COc1cc(/C=c2/sc3nc4ccccc4n3c2=O)cc(OC)c1O | / | -5.2
COc1ccc(NC(=O)N(C)C[C@H]2Oc3c(NC(=O)c4cnccn4)cccc3C(=O)N([C@H](C)CO)C[C@@H]2C)cc1 | / | -2.8
C[C@@H]1CN([C@@H](C)CO)C(=O)c2cc(NC(=O)Nc3ccccc3)ccc2O[C@@H]1CN(C)S(=O)(=O)c1ccc(Cl)cc1 | 1.2 | -0.3
O=c1c2c(nc3cc(-c4ccco4)[nH]n13)CSC2 | -5.3 | 3.2
C[C@@H]1CN([C@@H](C)CO)C(=O)c2cc(NC(=O)Nc3ccc4c(c3)OCO4)ccc2O[C@H]1CN(C)Cc1ccc2c(c1)OCO2 | 0.2 | 0.3
C[C@@H]1CN([C@H](C)CO)C(=O)c2cc(NS(=O)(=O)c3ccccc3)ccc2O[C@H]1CN(C)Cc1ccc(Oc2ccccc2)cc1 | -1.4 | 1.5
C[C@@H]1CN([C@H](C)CO)C(=O)c2cc(NC(=O)Cn3cnnn3)ccc2O[C@@H]1CN(C)C(=O)Nc1ccc(F)cc1 | -0.1 | 0.9
CC(C)(C)c1ccc(-c2n[nH]c(=S)n2/N=C/c2ccccn2)cc1 | / | 4.2
Cn1c(CCN(Cc2ccco2)S(=O)(=O)c2ccc(Cl)cc2)n[nH]c1=S | 1.0 | -1.9
CC(=O)/C(=C\c1ccccc1)CC(=O)O | 0.5 | 3.9
O=C1CSc2nnc(-c3ccccc3)n21 | -1.7 | -3.8
COc1ccc(N=Cc2c(C)c(C#N)c3[nH]c4ccccc4n3c2=O)c(OC)c1 | / | -1.1
O=C(NCCn1ccc2ccccc21)c1cc(C(F)(F)F)cc(C(F)(F)F)c1 | / | 5.4
C[C@H](CO)N1C[C@H](C)[C@@H](CN(C)S(C)(=O)=O)Oc2ccc(NC(=O)CCCN(C)C)cc2C1=O | 0.0 | 1.8
CNC[C@@H]1Oc2c(NS(=O)(=O)c3c(C)noc3C)cccc2C(=O)N([C@H](C)CO)C[C@@H]1C | / | 5.1

For reference, part of the list above:
SMILES | A1 inh | BJeLR viab HTS
O=C(NCCn1ccc2ccccc21)c1cc(C(F)(F)F)cc(C(F)(F)F)c1 | / | 5.4
C[C@H](CO)N1C[C@H](C)[C@@H](CN(C)S(C)(=O)=O)Oc2ccc(NC(=O)CCCN(C)C)cc2C1=O | 0.0 | 1.8
CNC[C@@H]1Oc2c(NS(=O)(=O)c3c(C)noc3C)cccc2C(=O)N([C@H](C)CO)C[C@@H]1C | / | 5.1

(more compounds)
SMILES | A1 inh | BJeLR viab HTS
O=c1c2ccccc2nc2n1N=C(c1ccc(Br)cc1)CS2 | 1.2 | -9.8
CC(=O)/C=C/C1(O)C(C)CCC2C(C)(C)CCCC21C (stereo not drawn) | 0.7 | -4.5
COC(=O)COc1cccc2c1ccc1c3c(c(=O)oc12)CCCC3 | -1.9 | -8.4
CCC(C)NC(=O)c1nn(C)c2c1COc1ccccc1-2 (stereo not drawn) | 0.0 | 2.8
CSC1=N/C(=C\c2ccccc2C)C(=O)S1 | 0.3 | 6.9
C[C@@H]1CN([C@@H](C)CO)C(=O)c2cccc(NC(=O)Nc3cccc4ccccc34)c2O[C@H]1CN(C)S(=O)(=O)c1cn(C)cn1 | / | -2.3
CCOC(=S)Nc1ccc(I)cc1 | -1.4 | 4.1
C[C@@H]1CN([C@H](C)CO)C(=O)c2cccc(NC(=O)c3cnccn3)c2O[C@H]1CN(C)S(=O)(=O)c1ccccc1 | / | 3.7
C[C@@H]1CN([C@H](C)CO)C(=O)c2cc(NS(=O)(=O)c3ccc(F)cc3)ccc2O[C@@H]1CN(C)Cc1ccc(C(=O)Nc2ccccc2N)cc1 | / | 7.6
CCn1c(C(=O)N2CCC(C(=O)NCc3ccccc3)CC2)cc2sccc21 | 0.3 | 0.4
O=C(c1cc(Br)cc2c1OCC2)N1CCCCC1 | 0.6 | 7.8
C[C@H]1CN([C@@H](C)CO)C(=O)c2cc(NC(=O)Cc3cn(C)c4ccccc34)ccc2O[C@@H]1CN(C)Cc1ccc(C(=O)O)cc1 | -0.7 | 0.1
Cc1ccc(S(=O)(=O)N(C)C[C@@H]2Oc3ccc(NC(=O)Cn4cnnn4)cc3C(=O)N([C@H](C)CO)C[C@@H]2C)cc1 | -1.1 | -0.5
c1ccc(-c2nc(C34CC5CC(CC(C5)C3)C4)cs2)cc1 | -1.3 | 13.4
COC(=O)C1=CC(C(=O)c2ccccc2)=NN(c2ccccc2)C1C(=O)OC (stereo not drawn) | 0.3 | -1.1
O=C(c1ccc2c(c1)sc1nc(-c3ccccc3)cn12)N1CCCCC1 | -4.7 | 10.3
C[C@@H]1CN([C@H](C)CO)C(=O)c2cccc(NS(=O)(=O)c3cccs3)c2O[C@@H]1CN(C)C(=O)Nc1cccc2ccccc12 | / | 1.0
CCOC(=O)Nc1ccc2c(c1)N(C(=O)CCN(C)C)c1ccccc1S2 | 1.8 | 1.7
C[C@H](CO)N1C[C@H](C)[C@H](CN(C)Cc2ccccc2)Oc2c(NS(=O)(=O)c3ccccc3)cccc2C1=O | / | -0.8
C[C@H]1CN([C@@H](C)CO)C(=O)c2cc(NC(=O)Nc3ccc(F)cc3)ccc2O[C@@H]1CN(C)Cc1ccc(C(F)(F)F)cc1 | -0.5 | -2.9
COC(=O)C1=C(Nc2ccc(OC(=O)c3cccc(C(F)(F)F)c3)cc2)CSC1 | 0.0 | -5.0
Cc1ccc(S(=O)(=O)NN2C(=O)S/C(=C/c3ccccc3)C2=S)cc1 | 0.0 | -2.2
C[C@@H]1CN([C@H](C)CO)C(=O)c2cccc(NS(=O)(=O)c3cccs3)c2O[C@H]1CN(C)Cc1ccc(C(=O)O)cc1 | / | -4.8
CCOc1ccc(CCNC(=O)Nc2ccc3snnc3c2)cc1 | -1.9 | -0.1
CCOC(=O)c1oc(C(=O)OCC)c(O)c1O | 0.1 | 3.9

Molecules listed so far that have an aryl thioether with sulfur outside any ring:
SMILES | A1 inh | BJeLR viab HTS
CCc1ccc(NC(=O)CSc2ccc3nnc(-c4ccccn4)n3n2)cc1 | -0.4 | 0.4
CSc1ccc(S(=O)(=O)Nc2c(C)cc(OCC(=O)N3CCOCC3)cc2C)cc1 | 0.0 | -1.1
CC(C)CSc1nnc(CSCc2nc(-c3ccc(Cl)cc3)cs2)n1C | -1.6 | 5.6
Cc1cc(C)n2c(SC(CNS(=O)(=O)c3ccccc3)c3ccccc3)nnc2n1 (stereo not drawn) | / | -1.1
CCc1cc2c(=O)n(-c3ccccc3)c(SCC(=O)c3ccccc3)nc2s1 | 0.5 | 1.4

Next section.
SMILES | A1 inh | BJeLR viab HTS
C[C@H]1CN([C@@H](C)CO)C(=O)c2cccc(NC(=O)Nc3ccc4c(c3)OCO4)c2O[C@@H]1CN(C)Cc1ccccc1 | / | 4.4
CC(=O)N1N=C(C)CC1c1ccc(OCc2ccccc2)cc1 (stereo not drawn) | 0.3 | -6.9
Cc1c(S(=O)(=O)c2ccc(Cl)cc2)csc1C(=O)NC1CCN(Cc2ccccc2)CC1 | -0.3 | -1.1
O=C(c1ccc(F)cc1)c1c[nH]c2ccccc2c1=O | / | -2.8
CCN(Cc1ccccc1)C(=O)Cn1c(=O)n(CC(=O)NCc2ccco2)c(=O)c2sccc21 | / | 1.2
COc1ccc(NC(=O)N(C)C[C@@H]2Oc3ccc(NS(=O)(=O)c4cn(C)cn4)cc3C(=O)N([C@H](C)CO)C[C@@H]2C)cc1 | 0.0 | -6.6
CC1CC(C)CN(S(=O)(=O)c2ccc(NC(=O)C3COc4ccccc4O3)cc2)C1 (stereo not drawn) | / | 12.5
C[C@H](CO)N1C[C@H](C)[C@@H](CN(C)Cc2ccc3c(c2)OCO3)Oc2c(NC(=O)Nc3ccc4c(c3)OCO4)cccc2C1=O | / | -1.7
Cc1c(C2CCN(CCc3ccccc3)CC2)noc1-c1ccc(Cl)cc1 | 0.8 | 8.8
C[C@H]1CN([C@@H](C)CO)C(=O)c2cccc(NS(=O)(=O)c3ccc(Cl)cc3)c2O[C@@H]1CN(C)Cc1ccc(Cl)c(Cl)c1 | / | -1.2
C[C@@H]1CN([C@H](C)CO)C(=O)c2cccc(N(C)C)c2O[C@H]1CN(C)S(=O)(=O)c1cccs1 | / | -3.7
CNC[C@H]1Oc2ccc(NS(=O)(=O)c3ccc(Cl)cc3)cc2C(=O)N([C@H](C)CO)C[C@H]1C | -0.2 | 2.7
C[C@@H]1CN([C@H](C)CO)C(=O)c2cccc(NC(=O)Nc3ccc4c(c3)OCO4)c2O[C@H]1CN(C)C | / | -2.1
C[C@H]1CN([C@@H](C)CO)C(=O)c2cccc(NC(=O)Nc3cccc4ccccc34)c2O[C@@H]1CN(C)S(=O)(=O)c1cn(C)cn1 | / | -0.2
COc1ccc(S(=O)(=O)N(C)C[C@H]2Oc3ccc(NC(=O)Cc4cn(C)c5ccccc45)cc3C(=O)N([C@H](C)CO)C[C@@H]2C)cc1 | 0.8 | 0.2
COc1ccc(CCNC(=O)c2cn(CC(C)C)c(=O)c3cc(OC)c(OC)cc23)cc1OC | / | -11.2
CCOC(=O)CC(=O)Nc1ccsc1C(=O)OC | / | 0.5
